# Screens from PubChem BioAssay.
# HIV Env fusion = HIV envelope-mediated fusion inhibition | inhibition, % at 12.3 µM | 360,000 tested, 1.1% active | AID 651610 | HeLa-JRFL Env/CEM21 cell fusion, luciferase;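 active means mean replicate inhibition score of at least 50 and every replicate individually at or above 50; inconclusive means only one of the two criteria met; inactive means mean below 50 and not all replicates reaching 50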;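 further: 0% = plate neutral controls and 100% = maraviroc near 300 nM; one replicate is shown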
# Yeast UUG start = alters start codon recognition fidelity in yeast. 350,000 tested, 0.13% active. S. cerevisiae UUG-firefly luciferase reporter, luminescence/redox ratio. activity score, % at 18.7 µM. AID 602363;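 active means replicate mean at a twofold rise or more, about +100% in these data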;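 further: firefly luciferase made from a UUG start codon reports start codon fidelity; reporter light over untreated wells divided by growth signal over untreated wells; some hits fall short of that in this replicate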
# MT1-MMP act inh = MT1-MMP (human) activation inhibition; 360,000 tested, 0.061% active; HT1080 RFP-PRO-GFP cells, GFP/RFP ratio fluorescence, overnight; percent of plate control window, DMSO zero; GFP/RFP ratio change, % at 20 µM; AID 651647;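 active means GFP/RFP ratio change of at least 30% with cell ATP level not reduced by more than half and red fluorescence within 50% of control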; further: strong numbers were not always called active
#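 Assay system: HT1080 RFP-PRO-GFP cells. Benchmarks: DMSO vehicle wells and RFP-L50D-GFP reporter cell wells. Times: overnight cell settling, then overnight compound exposure, 37 °C, 5% CO2. Compound: 20 µM single dose, 1% DMSO. Read-out basis: GFP/RFP fluorescence ratio.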
# Rce1 inh = blocks yeast Ras-converting enzyme; calls only; 290,000 tested, 0.27% active; Q03530; AID 2563; yeast membranes, quenched prenylated peptide cleavage fluorescence;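 active means fall in fluorescence gain of 50% or more versus controls, with final raw signal at or below 3038400; inconclusive means same 50% fall but final raw signal above 3038400; inactive means fall in fluorescence gain under 50%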;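 further: plate controls were neutral control wells for no effect and wells lacking membranes for full effect; tested at 10 µM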
# CSC inhib = blocks cancer stem cells | inhibition, % at 7.5 µM | AID 2717 | cancer stem cell-like cells viability, luminescence | 300,000 tested, 1.1% active;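 active means mean at 75% or more and at least half the replicates too; inconclusive means mean and replicates disagree; tested in HMLE shEcad cells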;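 further: 0% = median of negative and 100% = median of positive control wells; the first replicate is given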
# PABP polyA inh = PABP-poly(A) binding inhibition. P11940. PABP-poly(A) RNA binding, fluorescence polarization. inhibition, % at 35 µM. 290,000 tested, 1% active. AID 2014;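 active means 50% or more with normal probe brightness, or confirmed in later tests; inconclusive means above 50% with abnormal brightness, or retests that disagree; inactive means below 50% or failed in later tests; about a fifth of its hits are not listed in these tables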;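 further: calls also rest on retests at 20 µM and on dose response follow-up; controls were probe without protein and protein plus probe with vehicle; some compounds called inactive have numbers as strong as hits; many hits fall short of the cut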
# Target sequence (P11940 whole entry, looked up): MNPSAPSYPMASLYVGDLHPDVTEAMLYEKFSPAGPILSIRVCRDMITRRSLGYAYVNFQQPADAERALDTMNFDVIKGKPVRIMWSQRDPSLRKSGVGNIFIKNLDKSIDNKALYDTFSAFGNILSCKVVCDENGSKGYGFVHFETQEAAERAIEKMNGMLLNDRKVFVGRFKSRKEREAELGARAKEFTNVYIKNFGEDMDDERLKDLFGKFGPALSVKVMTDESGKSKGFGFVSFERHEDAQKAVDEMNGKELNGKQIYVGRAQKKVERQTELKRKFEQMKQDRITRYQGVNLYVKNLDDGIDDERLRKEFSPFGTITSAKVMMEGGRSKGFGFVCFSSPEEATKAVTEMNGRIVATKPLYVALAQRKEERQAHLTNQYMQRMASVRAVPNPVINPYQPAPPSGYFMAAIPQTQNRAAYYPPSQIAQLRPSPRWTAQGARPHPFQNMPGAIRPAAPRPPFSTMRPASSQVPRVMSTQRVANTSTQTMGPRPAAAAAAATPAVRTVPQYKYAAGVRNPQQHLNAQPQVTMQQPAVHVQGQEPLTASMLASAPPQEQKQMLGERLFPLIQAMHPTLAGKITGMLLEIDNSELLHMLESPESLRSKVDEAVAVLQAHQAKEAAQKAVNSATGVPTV
# eIF4H inh = inhibitors of RNA binding by human eIF4H. Q15056. eIF4H fluorescence polarization binding assay. inhibition, % at 35 µM. 290,000 tested, 0.94% active;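 active means 50% or more with normal probe brightness, or confirmed in later tests; inconclusive means above 50% with abnormal brightness, or retests that disagree; inactive means below 50% or failed in later tests; about a fifth of its hits are not listed in these tables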;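 further: calls also rest on retests at 20 µM and on dose response follow-up; 0% = protein and probe with vehicle and 100% = probe without protein; strong numbers were not always called active; many hits fall short of the cut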
# MT1-MMP act inh RFP = second read-out of MT1-MMP act inh, no call of its own (marks repeat the call); RFP signal change, %; measured here: RFP expression control read;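 0 = vehicle wells; hits needed this value within 50% of zero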
# * hit, by the source's call; i = inactive; ? = inconclusive; . = not tested or not shown; & = joins results of further samples.
SMILES,HIV Env fusion,Yeast UUG start,MT1-MMP act inh,MT1-MMP act inh RFP,Rce1 inh,CSC inhib,PABP polyA inh,eIF4H inh
CCc1nnc(NC(=O)c2ccc(S(=O)(=O)N(CC)CC)cc2)s1,-46,6,1,1,i,-9,-1,-2
Cc1ccc(CNC(=O)C2CC(=O)N(C3CCCC3)C2)cc1 (configuration not stated),-6,5,-3,2,.,.,.,.
CN1C(=O)/C(=C\c2cc(N=Nc3ccccc3)ccc2O)SC1=S,.,-20,32*,35*,i,0,-9,4
CC(=O)c1cccc(NC(=O)CCNS(=O)(=O)c2cccc3nsnc23)c1,-30,-6,3,6,i,-4,-7,0
Cc1ccc2oc(=O)n(CCOc3ccccc3)c2c1,-11,.,3,2,i,14,9,6
O=C(COC(=O)C1CCCCC1)NCCc1ccccc1,-6,.,-1,3,.,.,-13,2
O=C(COC(=O)c1cc[n+]([O-])cc1)NC(=O)c1ccc(OC(F)F)cc1,.,1,-2,2,.,-21,.,.
CCCCn1c(N)c(N(CCC(C)C)C(=O)C2CCCC2)c(=O)[nH]c1=O,.,-4,-6,5,.,-20,.,.
COc1ccc(Cl)cc1S(=O)(=O)N1CCN=C1C,34*,14,-5,4,i,-2,-1,-11
COc1ccc(-c2nn(C)c3sc(C(=O)N4CCOCC4)cc23)cc1OC,10,-3,5,1,i,4,4,-4
COc1ccc(NS(=O)(=O)c2ccc(F)cc2F)cn1,-9,-13,2,1,i,-22,70*,65*
C/C(=N\NC(=O)c1cc(C)oc1C)c1ccc(N2CCOCC2)cc1,9,.,3,4,i,-3,3,-14
CN(C)S(=O)(=O)c1ccc(NC(=O)CN2C(=O)NC(Cc3ccccc3)C2=O)cc1 (configuration not stated),5,-32,6,1,.,-9,.,.
NC(=O)c1ncn([C@@H]2O[C@H](CNCc3cnc(N4CCOCC4)nc3)[C@@H](O)[C@H]2O)n1,-2,-20,3,8,.,.,.,.
Cc1cccc(/C(N)=N/OC(=O)c2ccoc2C)c1,-12,-11,-1,-5,i,2,9,0
COc1ccc(C)cc1S(=O)(=O)N1CCCC(C(=O)NCc2ccccn2)C1 (configuration not stated),8,-22,-3,5,i,-4,8,-1
CC(C)COc1ccc(Cc2cnc(N)nc2N)cc1,.,3,4,-5,i,-34,3,4
C=CCn1c(SCC(N)=O)nc(C)cc1=O,.,-3,0,6,i,-3,-1,14
Cc1cc(=O)[nH]c(NCc2ccccc2)n1,9,.,1,5,i,6,-3,-1
COc1ccccc1N1C(=O)C(=O)N(C)C1=O,-2,.,2,2,i,8,.,.
O=C(CSc1nc2c([nH]c3ccccc32)c(=O)n1-c1ccccc1)NCC1CCCO1 (configuration not stated),10,-11,-6,-2,i,-5,-8,-2
Cc1oc(-c2ccccc2F)nc1CS(=O)(=O)CC(=O)NCCN(C)C1CCCCC1,-1,23,9,3,i,8,6,-5
CN(c1ccc(C(=O)Nc2ccc(CC#N)cc2)cc1)S(C)(=O)=O,-2,.,8,0,i,-1,-13,-4
CC1(c2ccc3noc(-c4ccc(F)cc4)c3c2)OCCO1,.,-13,-14,-20,i,8,12,11
CCCC(O)(CCC)C(=O)NNc1ccc(C)cc1,-6,.,-1,6,i,23,10,2
SMILES,HIV Env fusion,Yeast UUG start,MT1-MMP act inh,MT1-MMP act inh RFP,Rce1 inh,CSC inhib,PABP polyA inh,eIF4H inh
Cc1nc(Oc2cccc(Cl)c2)c2oc3ccccc3c2n1,6,.,.,.,i,4,-13,-13
COc1ccc(C2/C=C\CN(S(=O)(=O)c3ccc4ccccc4c3)CC(=O)N2Cc2ccc(F)cc2)cc1 (configuration not stated),-9,-16,-3,-4,i,-3,2,-9
CC(C(=O)NCc1ccccc1Cl)n1cc([N+](=O)[O-])cn1 (configuration not stated),12,-13,-1,0,.,-18,0,3
CSc1nnc(-c2ccncc2)n1/N=C/c1cn(-c2ccccc2)nc1-c1ccc(Cl)cc1,18,.,-6,-4,i,44,-5,-15
CCOC(=O)N1CCC(n2c(SCC(=O)NCc3ccccc3)nc3ccccc3c2=O)CC1,7,7,2,4,i,-3,3,12
Cc1cc(C)c(S(=O)(=O)Nc2ccc(N(C)C)cc2)c(C)c1-n1cnnn1,-29,-28,0,2,i,-8,12,-2
O=C1/C(=C/c2cccc([N+](=O)[O-])c2)Oc2cc(O)ccc21,-14,-9,-12,-8,i,0,-2,6
Cc1ccc(Cl)cc1NC(=O)COC(=O)C1CCCCC1,8,-10,8,2,i,-4,2,4
CC1(C)CC(=O)C(C(C2=C(O)CC(C)(C)CC2=O)c2ccc([N+](=O)[O-])cc2)C(=O)C1 (configuration not stated),.,.,-3,3,i,.,4,-6
CCOC(=O)[C@H]1[C@H]2COc3ccc(C)cc3[C@@H]2N2C(=O)CN(Cc3ccc(Cl)cc3)C(=O)[C@@]12C,-23,-18,-1,-7,.,-20,.,.
COc1ccc(C(=O)NC(=S)Nc2cc3oc4ccccc4c3cc2OC)cc1,12,.,11,6,i,-2,-3,0
CC(=O)NCCC(=O)Nc1nc(-c2c[nH]c3ccccc23)cs1,3,-16,-2,3,i,.,11,-13
COc1ccc(C)cc1NC(=O)c1ccc(S(=O)(=O)N2CCOCC2)cc1,-43,-18,3,1,i,-11,-1,-7
CC[C@H](C)[C@H](NS(=O)(=O)c1ccc(C)cc1)C(=O)N1CCC(C(=O)N[C@H](C(=O)O)C(C)C)CC1,.,.,5,4,i,8,-5,-1
CN(C)S(=O)(=O)Oc1ccc(C(=O)Nc2cccc(Cl)c2)cc1,-15,.,2,-2,i,14,0,-2
COc1ccccc1-n1cc2c([N+](=O)[O-])cc([N+](=O)[O-])cc2n1,4,-8,1,3,i,3,7,-8
CCCOc1cccc(NC(=O)c2c(-c3ccccc3)noc2C)c1,-1,-12,-10,-6,i,6,0,12
COc1cc2[nH]c(-c3ccc(C)cc3)cc(=O)c2cc1OC,-23,-17,3,-1,i,15,2,3
Cc1cc(/C=C2/NC(=O)N(Cc3ccccc3F)C2=O)c(C)n1C(C)C,-17,.,-6,-3,.,11,7,12
CCc1cccc(NC(=O)CSc2nc(C)cs2)c1,-5,-13,-2,-2,.,.,.,.
CCC(CC)NC(=O)COC(=O)CCC(=O)c1cccs1,1,.,2,7,i,.,3,-12
CCCOc1ccc(CN(C(=O)c2cccc(OC)c2)C2CCS(=O)(=O)C2)cc1 (configuration not stated),8,-2,-1,2,i,0,.,.
CC1CC(C)CN(S(=O)(=O)CCNC(=O)c2ccc3c(c2)OCO3)C1 (configuration not stated),-5,-13,1,3,i,.,.,.
O=C(NC1CCCC1)C(=O)N(c1ccccc1F)C(C(=O)NCC1CCCO1)c1cccs1 (configuration not stated),13,-2,-3,-1,.,4,1,0
COc1cc2c(cc1OC)-c1cc(Nc3ccc4c(c3)OCCO4)nc(=O)n1CC2,.,-58,3,6,i,18,33,-1
SMILES,HIV Env fusion,Yeast UUG start,MT1-MMP act inh,MT1-MMP act inh RFP,Rce1 inh,CSC inhib,PABP polyA inh,eIF4H inh
CCc1ccc(-c2nc(CN3CCCC(C(=O)O)C3)c(C)o2)cc1 (configuration not stated),13,-11,5,8,i,-11,16,-11
Cc1cc(Nc2ccc(Cl)cc2)n(-c2cccc(Cl)c2)n1,17,-17,-5,-6,i,37,4,9
Cc1cccc(C(=O)Nc2cccc(S(=O)(=O)NCc3ccco3)c2)c1,3,-12,4,-5,.,1,.,.
CC(OC(=O)C1CSC2(C)CCC(=O)N12)C(=O)Nc1cccc(C#N)c1 (configuration not stated),-12,.,2,2,i,-2,.,.
C=CCn1c(SCc2c(C)noc2C)nc2ccccc2c1=O,62*,-4,7,-6,i,?,-9,2
C/C(=N/NC(=O)c1ccc(-c2ccccc2)cc1)c1cccc(O)c1,-8,-10,0,4,i,-9,-12,0
OCc1nc2ccc(Cl)cc2[nH]1,-8,-8,0,-11,i,-18,-1,1
C[C@H]1CN([C@@H](C)CO)S(=O)(=O)c2ccc(/C=C/c3ccccc3)cc2O[C@H]1CN(C)C(=O)NC1CCCCC1,-22,-14&-8,-6,-5,.,.,.,.
C/C(=N\NC(=O)C1CC1)c1ccc(NC(=O)c2ccc(Br)o2)cc1,-40,.,.,.,.,10,9,28
CCCn1c2ccccc2c2cnn(CC(=O)OC)c(=O)c21,-4,-6,0,-1,i,-14,8,0
C/C(=N\OC(=O)c1ccc(C)cc1)c1sc(C)nc1C,.,-32,3,2,i,-1,5,-5
Cc1cc(C(F)F)n2nc(C(=O)Nc3cc(C)on3)nc2n1,.,-20,-2,1,i,0,6,10
CCN1C(=O)[C@H]2[C@@H](c3ccc(OC)cc3)N3C(=O)CN(Cc4ccccc4)C(=O)[C@@]3(Cc3ccccc3)[C@H]2C1=O,-15,-6,0,-3,i,2,8,-1
COc1ccc(OCC(=O)N/N=C(\C)c2ccc(OC)cc2)cc1,3,.,2,-4,i,-8,-2,6
COc1cccc(CN(C)C(=O)c2cccc(OC3CCN(C4CCCC4)CC3)c2)c1,-5,.,2,2,i,3,-8,-2
COc1ccc(C(=O)/C=C/c2cn(CC(O)CN3CCOCC3)c3ccccc23)cc1 (configuration not stated),.,.,-14,-2,.,58,-20,21
Cc1cc(NC(=O)CSc2nnc(CNC(=O)c3cccc(C(F)(F)F)c3)o2)no1,1,-24,-9,-4,i,-5,11,-2
O=C(NCC(=O)N1CCC2(CC1)NCCc1[nH]cnc12)c1ccc(F)cc1,-2,-15,-4,0,i,1,.,.
CS(=O)(=O)c1nc(S(=O)(=O)c2ccc(Cl)cc2)c(NCCCN2CCCC2=O)s1,-2,-3,-2,1,i,-8,-2,-18
CCOc1cc(Br)ccc1S(=O)(=O)N1CC(C)OC(C)C1 (configuration not stated),.,-6,-8,-11,i,-9,2,-8

# For reference, part of the list above:
SMILES,HIV Env fusion,Yeast UUG start,MT1-MMP act inh,MT1-MMP act inh RFP,Rce1 inh,CSC inhib,PABP polyA inh,eIF4H inh
C/C(=N\OC(=O)c1ccc(C)cc1)c1sc(C)nc1C,.,-32,3,2,i,-1,5,-5
Cc1cc(C(F)F)n2nc(C(=O)Nc3cc(C)on3)nc2n1,.,-20,-2,1,i,0,6,10
CCN1C(=O)[C@H]2[C@@H](c3ccc(OC)cc3)N3C(=O)CN(Cc4ccccc4)C(=O)[C@@]3(Cc3ccccc3)[C@H]2C1=O,-15,-6,0,-3,i,2,8,-1
COc1ccc(OCC(=O)N/N=C(\C)c2ccc(OC)cc2)cc1,3,.,2,-4,i,-8,-2,6
COc1cccc(CN(C)C(=O)c2cccc(OC3CCN(C4CCCC4)CC3)c2)c1,-5,.,2,2,i,3,-8,-2
COc1ccc(C(=O)/C=C/c2cn(CC(O)CN3CCOCC3)c3ccccc23)cc1 (configuration not stated),.,.,-14,-2,.,58,-20,21
Cc1cc(NC(=O)CSc2nnc(CNC(=O)c3cccc(C(F)(F)F)c3)o2)no1,1,-24,-9,-4,i,-5,11,-2
O=C(NCC(=O)N1CCC2(CC1)NCCc1[nH]cnc12)c1ccc(F)cc1,-2,-15,-4,0,i,1,.,.
CS(=O)(=O)c1nc(S(=O)(=O)c2ccc(Cl)cc2)c(NCCCN2CCCC2=O)s1,-2,-3,-2,1,i,-8,-2,-18
CCOc1cc(Br)ccc1S(=O)(=O)N1CC(C)OC(C)C1 (configuration not stated),.,-6,-8,-11,i,-9,2,-8

# Only part of the results is shown; rates above refer to the full screens.
